Source: PubChem
B2AR ag = beta2AR agonists driving receptor internalization, primary screen, cell-based, FAP fluorogen, flow cytometry; Am2.2-beta2AR cells; reference of the scale not given here; response, % (concentration not given with the values); Beta-2 adrenergic receptor (Homo sapiens), P07550; actives 0.43% (n = 340,000); AID 504454, 2011;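 active = response above a set limit, near 3 SD of response in nonfluorescent compounds, cut at about 42% in these data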;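 also: stock transfer was 100 nL into about 11 µL; a reference agonist was the positive control; negative values mostly stem from fluorescent compounds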
Target sequence (P07550 whole entry, looked up): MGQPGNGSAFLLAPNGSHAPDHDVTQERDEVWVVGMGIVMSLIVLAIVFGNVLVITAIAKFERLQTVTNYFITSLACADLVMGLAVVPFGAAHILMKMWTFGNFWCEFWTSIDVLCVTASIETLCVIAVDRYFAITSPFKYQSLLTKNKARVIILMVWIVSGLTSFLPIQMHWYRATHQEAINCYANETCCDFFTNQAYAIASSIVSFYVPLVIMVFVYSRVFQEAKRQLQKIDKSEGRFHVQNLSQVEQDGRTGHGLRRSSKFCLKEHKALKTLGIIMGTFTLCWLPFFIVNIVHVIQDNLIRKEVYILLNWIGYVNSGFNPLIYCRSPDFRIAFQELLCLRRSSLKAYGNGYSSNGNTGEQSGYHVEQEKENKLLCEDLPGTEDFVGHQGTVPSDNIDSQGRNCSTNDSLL
UCH37 inh = inhibitors of human UCH37 deubiquitinase, primary screen, biochemical, Ub-AMC cleavage, fluorescence | Ubiquitin carboxyl-terminal hydrolase isozyme L5 (Homo sapiens), Q9Y5K5 | purified proteasome/UCH37 | inhibition, % (test concentration not listed) | actives 0.33% (n = 330,000);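 active = mean of two replicates above 20%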;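 also: 0% = compound-free wells with enzyme and 100% = wells lacking proteasome; stock transfer was 100 nL into about 20 µL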
Target sequence (Q9Y5K5 whole entry, looked up): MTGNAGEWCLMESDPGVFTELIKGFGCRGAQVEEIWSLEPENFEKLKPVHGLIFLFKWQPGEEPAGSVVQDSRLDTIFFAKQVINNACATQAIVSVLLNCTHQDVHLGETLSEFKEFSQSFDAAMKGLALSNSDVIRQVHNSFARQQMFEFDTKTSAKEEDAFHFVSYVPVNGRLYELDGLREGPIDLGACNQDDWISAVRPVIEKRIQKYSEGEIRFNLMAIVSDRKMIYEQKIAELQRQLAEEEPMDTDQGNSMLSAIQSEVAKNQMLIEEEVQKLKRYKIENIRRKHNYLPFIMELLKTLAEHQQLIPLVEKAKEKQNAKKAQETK
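Signal – fluorescence, ex 355 nm, em 460 nm · System – Proteasome-bound UCH37 · Input – 0.15 nM proteasome as dispensed · Timing – 30 min preincubation with enzyme, 25 min cleavage at room temperature · Read-out basis – percent inhibition of cleavage signal versus uninhibited and no-proteasome wells · Medium – Tris-HCl pH 7.4 with ATP-MgCl2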
HNF4A DNA FP = change in binding of human HNF4A to DNA, primary screen, biochemical, fluorescence polarization, FITC-DNA | 1 h | activity change, % at 10 µM | AID 1224865, 2016 | Hepatocyte nuclear factor 4-alpha (Homo sapiens), P41235 | actives 0.3% (n = 360,000); in the data active = activity change above about 30%, passing the limit was not always enough;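 also: controls were the assay level and a saturating level of protein; the project sought stronger binding though the title names inhibitors; some compounds called inactive have numbers as strong as hits; positive values seem to mean higher polarization but the record does not say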
ALR H2O2 inh = inhibitors of human ALR sulfhydryl oxidase, primary screen, biochemical, H2O2 detection, HRP-luminol luminescence, single point; purified ALR, DTT oxidation; FAD-linked sulfhydryl oxidase ALR (Homo sapiens), P55789; actives 3.8% (n = 290,000); inhibition, % (no concentration beside the values);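 active = mean and each replicate at 75% or more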;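 also: stock transfer was 7.5 nL into about 7.5 µL; 0% = neutral wells and 100% = wells with inactivated enzyme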
Ecoli growth = E. coli growth inhibition, primary screen, OD600 | Escherichia coli growth, 23 h; hits give low values | OD600 absorbance (no concentration beside the values) | actives 0.21% (n = 330,000) | AID 1053175, 2014;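 active = OD600 absorbance below the run mean of sample wells minus 3.6 SD, in any replicate, cut at about 0.56 in these data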;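 also: stock transfer was 300 nL into about 60 µL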
FGF22 binding = binders of human FGF22 protein, primary screen, FGF22 synaptogenesis inhibitor project, biophysical, thermal shift, single point; Fibroblast growth factor 22 (Homo sapiens), Q9HCT0; recombinant FGF22 thermal shift, SYPRO orange fluorescence; percent of sucrose octasulfate shift, DMSO zero; calls only at 9.99 µM; actives 1.5% (n = 340,000); AID 651658, 2012;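 active = melting point raised past a set limit in the mean and every replicate; three in four hits are not shown here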
Ecoli rRNA inh = reduced GFP signal of wild-type E. coli, primary screen, bacterial rRNA inhibitor project, GFP/RFP fluorescence, OD600, single point; E. coli WT GFP vs humanized-ribosome RFP mutants, 24 h; hits give low values; DMSO median 0, no signal -100; actives 1.6% (n = 350,000); AID 720706, 2013; GFP signal change (wild-type ribosome), % (test concentration not listed);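 active = significant combined selectivity score with lowered wild-type GFP, culture density cut under 30%, mutant RFP and density less affected; inactive = any of these conditions unmet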; also: one replicate is shown; some compounds called inactive have numbers as strong as hits
Ecoli rRNA inh OD600 = further read-out of Ecoli rRNA inh, marked with its call; OD600 change, %; measured here: OD600 growth;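 optical density of the mix in the first replicate; 0 = DMSO median and -100 = no signal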
Ecoli rRNA inh RFP = also measured in Ecoli rRNA inh; calls as there; RFP signal change, %; measured here: RFP humanized mutant strains;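 first replicate; 0 = DMSO median and -100 = no signal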
Starred values were filed as active, the others as inactive; i = inactive; / = no result given. Some of the compounds tested; count on the stated rates, not on these rows.

SMILES | B2AR ag | UCH37 inh | HNF4A DNA FP | ALR H2O2 inh | Ecoli growth | FGF22 binding | Ecoli rRNA inh | Ecoli rRNA inh OD600 | Ecoli rRNA inh RFP
CCN(CC)C(=O)C(=O)Nc1ccc(OC)c(Cl)c1 | 1 | 2.5 | -5.7 | 3 | 0.65 | i | 4 | 5 | -2.7
CCCCn1c(N)c(Sc2ccc(C)cc2)c(=O)[nH]c1=O | 9 | 5.2 | -0.6 | -13 | 0.68 | / | / | / | /
CC(=O)Nc1ccc(NC(=O)c2cccc3c2-c2ccccc2C3=O)cc1 | -3 | 6.7 | -0.5 | -8 | 0.67 | i | 15 | 12 | -0.4
CCOc1ccc(C=NNc2ccc(S(=O)(=O)Nc3ccccc3C(=O)O)cc2[N+](=O)[O-])cc1OC | 0 | 44* | -4.3 | / | 0.68 | / | / | / | /
Cc1cccc(N(Cc2ccccc2)C(=O)c2cccc(S(=O)(=O)N3CC(C)OC(C)C3)c2)c1 (stereo unspecified) | 2 | -1.0 | -1.3 | -5 | 0.73 | / | -6 | -15 | 2.2
O=C(CCN1C(=O)c2ccccc2C1=O)NCc1ccc(Cl)cc1 | 0 | 0.5 | -0.8 | 1 | 0.71 | i | 4 | 12 | 1.5
O=S(=O)(NC1=NCCCCC1)c1cccs1 | 3 | 2.1 | -1.3 | -2 | 0.7 | i | 2 | 6 | 3.0
CCOC(=O)CNc1nc(Cl)c(C#N)s1 | 4 | 1.4 | 3.8 | 0 | 0.71 | i | 17 | 15 | -4.3
CCOc1ccccc1NC(=O)NC1(C(=O)N2CCN3CCCC3C2)CCCCC1 (stereo unspecified) | -5 | -0.1 | 2.3 | 1 | 0.7 | / | / | / | /
CC(=O)c1cc(CN2CCC(C(=O)Nc3ccc(-n4nc(C)cc4C)cc3)CC2)cs1 | 3 | -2.6 | 2.1 | -9 | 0.67 | i | 3 | 5 | 1.6
COCCn1c(-c2ccccc2)nc(=S)c2c1CC(C)(C)OC2 | -4 | 11 | 0.7 | -6 | 0.79 | / | / | / | /
COc1ccc(N(CC(=O)NC2CCCC2)C(=O)Cn2nnc(-c3ccc(C)cc3)n2)cc1OC | -4 | 2.9 | 2.4 | -6 | 0.71 | / | / | / | /
CC(=O)O[C@@H]1C[C@H](c2ccccc2)OC(=O)CCCCC1=O | / | / | 4.5 | / | / | i | -5 | 5 | -6.9
CCN1CCN(C(=O)/C=C/c2cccc(Cl)c2)CC1 | 7 | 4.9 | 3.9 | 2 | 0.7 | i | 1 | 5 | 0.8
CNc1ccccc1C(=O)OCC(=O)Nc1ccc2c(c1)OCO2 | 1 | -143 | 0.2 | -11 | 0.71 | i | -15 | -11 | -4.2

Results in Ecoli rRNA inh, FGF22 binding and Ecoli growth, for six of the compounds above:
molecule	Ecoli rRNA inh	FGF22 binding	Ecoli growth
CC(=O)Nc1ccc(NC(=O)c2cccc3c2-c2ccccc2C3=O)cc1	15	i	0.67
CCOc1ccc(C=NNc2ccc(S(=O)(=O)Nc3ccccc3C(=O)O)cc2[N+](=O)[O-])cc1OC	/	/	0.68
Cc1cccc(N(Cc2ccccc2)C(=O)c2cccc(S(=O)(=O)N3CC(C)OC(C)C3)c2)c1 (stereo unspecified)	-6	/	0.73
O=C(CCN1C(=O)c2ccccc2C1=O)NCc1ccc(Cl)cc1	4	i	0.71
O=S(=O)(NC1=NCCCCC1)c1cccs1	2	i	0.7
CCOC(=O)CNc1nc(Cl)c(C#N)s1	17	i	0.71

Back to the main list with the 2 entries that preceded the break.
SMILES | B2AR ag | UCH37 inh | HNF4A DNA FP | ALR H2O2 inh | Ecoli growth | FGF22 binding | Ecoli rRNA inh | Ecoli rRNA inh OD600 | Ecoli rRNA inh RFP
CCN1CCN(C(=O)/C=C/c2cccc(Cl)c2)CC1 | 7 | 4.9 | 3.9 | 2 | 0.7 | i | 1 | 5 | 0.8
CNc1ccccc1C(=O)OCC(=O)Nc1ccc2c(c1)OCO2 | 1 | -143 | 0.2 | -11 | 0.71 | i | -15 | -11 | -4.2
CC(=O)c1ccccc1NS(=O)(=O)c1cccc2nsnc12 | 12 | 3.3 | -6.5 | -11 | 0.66 | / | 14 | 18 | 2.7
CC(=O)Nc1ccc(NC(=O)c2ccc(-c3ccnn3C)c3ccoc23)cc1 | / | / | -1.6 | / | / | i | -1 | 1 | -2.8
CCOc1ccc(N(C(C)C(=O)N2CCCC2)S(C)(=O)=O)cc1 (stereo unspecified) | -7 | 4.8 | -0.1 | / | 0.65 | i | -3 | 1 | -1.9
c1ccc(-c2cc(N3CCOCC3)nc(-c3ccccc3)n2)cc1 | -16 | 2.0 | 0.4 | -3 | 0.68 | / | / | / | /
O=C(NCc1cccnc1)C1CCCN(S(=O)(=O)c2cccc3nsnc23)C1 (stereo unspecified) | 14 | 4.0 | -0.4 | -3 | 0.65 | i | 7 | 6 | -5.9
Cc1ccc(OC(=O)c2c(C)nn(-c3ccccc3)c2C)cc1 | 4 | -2.1 | 0.9 | / | 0.67 | i | -30 | -38 | -9.4
O=C(C(=O)N1CCN(C(=O)c2ccco2)CC1)c1cc2ccccc2o1 | / | / | -5.8 | / | / | i | 5 | 6 | 1.8
CCCCC(=O)NC(=S)Nc1ccccc1N1CCCCC1 | -6 | 3.6 | -1.0 | -21 | 0.72 | / | / | / | /
COc1ccc2[nH]c(C(=O)N/N=C/c3ccc(OC)c(O)c3)cc2c1 | 11 | / | -3.4 | 50 | / | i | -42 | -62 | 12
COc1ccc(-c2cn[nH]c2-c2ccc(OCc3ccccc3)cc2O)cc1OC | 22 | 3.1 | -2.5 | 11 | 0.73 | i | -4 | -5 | 9.9
COc1ccc(OC)c(C(=O)COC(=O)C(CCSC)NC(=O)COc2ccccc2)c1 (stereo unspecified) | -5 | -12 | -1.6 | -14 | 0.7 | i | -1 | 6 | 1.2
CC1(c2ccc(Cl)cc2)NC(=O)N(CC(=O)Nc2cccnc2Cl)C1=O (stereo unspecified) | -5 | 4.1 | -0.9 | -17 | 0.72 | i | 9 | 8 | -1.6
COc1cc(NC(=O)c2cccs2)c(C(=O)OCC(=O)NC(C)c2ccccc2)cc1OC (stereo unspecified) | -10 | 5.8 | 2.2 | -3 | 0.67 | / | / | / | /
O=C1c2ccccc2C(=O)N1CC#CCN1CCN(C2CCCCC2)CC1 | 7 | 2.4 | 0.0 | / | 0.69 | / | / | / | /
O=c1c(Cc2ccc(F)cc2)c(O)ccn1CCCn1ccnc1 | -6 | 2.9 | 3.1 | -1 | 0.65 | i | 14 | 2 | -2.5
